KAT2A inh = blocks human GCN5L2 histone acetyltransferase. GCN5L2 HAT assay, ThioGlo1 CoA-SH fluorescence. AID 504327. actives 0.21% (n = 390,000). Potency, µM (highest dose often 58.9 µM), for the others: at the highest dose activity change, negative = inhibition, usual class: inhibitors. Q92830; active = well fitted inhibition curve with a large enough effect; inconclusive = small, poorly fitted or top-dose-only effect, or another doubt; inactive = no such curve, though single readings can be large or run the other way
Target sequence (Q92830 whole entry, looked up): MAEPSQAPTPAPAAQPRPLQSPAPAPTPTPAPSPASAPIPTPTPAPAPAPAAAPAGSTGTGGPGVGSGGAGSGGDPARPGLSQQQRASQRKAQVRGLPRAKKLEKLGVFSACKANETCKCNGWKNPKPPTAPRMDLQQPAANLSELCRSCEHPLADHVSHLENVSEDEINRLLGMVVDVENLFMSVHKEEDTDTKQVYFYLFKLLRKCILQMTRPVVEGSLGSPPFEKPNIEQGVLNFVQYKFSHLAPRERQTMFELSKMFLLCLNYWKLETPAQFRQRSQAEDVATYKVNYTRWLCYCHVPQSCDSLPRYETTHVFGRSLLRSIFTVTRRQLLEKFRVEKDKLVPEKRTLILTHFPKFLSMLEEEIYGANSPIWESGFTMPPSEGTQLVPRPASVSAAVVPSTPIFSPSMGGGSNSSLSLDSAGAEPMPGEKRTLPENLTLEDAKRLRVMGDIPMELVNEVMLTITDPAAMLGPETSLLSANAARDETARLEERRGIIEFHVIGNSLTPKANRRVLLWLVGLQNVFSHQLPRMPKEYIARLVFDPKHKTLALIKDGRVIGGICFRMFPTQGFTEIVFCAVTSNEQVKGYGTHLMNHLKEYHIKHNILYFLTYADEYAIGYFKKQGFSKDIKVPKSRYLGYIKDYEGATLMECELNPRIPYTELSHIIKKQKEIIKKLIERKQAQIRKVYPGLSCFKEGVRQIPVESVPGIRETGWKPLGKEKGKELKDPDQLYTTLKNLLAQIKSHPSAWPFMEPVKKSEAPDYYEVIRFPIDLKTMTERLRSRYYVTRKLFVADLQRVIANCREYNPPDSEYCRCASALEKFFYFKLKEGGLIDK
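ThioGlo1-coupled HAT assay: 20nM GCN5L2, 70uM acetyl-CoA, 75uM H3(1-25) peptide, pH 7.5. Fluorescence read at 340/540nm at start and after 20 min at room temperature.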
* hit, by the source's call; ? = inconclusive; & = joins results of further samples. % is scaled to controls: 0 for no effect and ±100 for the full control effect; potency is read from the fitted curve at half-maximal effect.

Molecule | KAT2A inh
O=C(NC(=O)c1c(F)cccc1F)Nc1cc(Cl)c(OC(F)(F)C(F)C(F)(F)F)cc1Cl (centres undefined) | -15%&-11%
COc1cccc(N2C(=O)NC(=O)/C(=C\c3ccc([N+](=O)[O-])s3)C2=O)c1 | ?
CCOP(=S)(NN(Cc1ccccc1)C(=O)c1ccccc1)OCC | 5%
O=S1OCC2C(CO1)C1(Cl)C(Cl)=C(Cl)C2(Cl)C1(Cl)Cl (centres undefined) | -2%
NP(=O)(Oc1ccc(Cl)cc1)Oc1ccc(Cl)cc1 | ?
CCOC(=O)c1cncn1C(C)c1ccccc1 (centres undefined) | 2%
CCc1ccccc1NC(=O)CN1CCN(C(=O)COc2ccccc2C#N)CC1 | -9%
CC(=O)N(C1=NCCCS1)c1ccccc1Cl | 1%

Next section.
Molecule | KAT2A inh
C/C(O)=C(\C#N)C(=O)Nc1cc(Br)ccc1Br | ?
Cc1ccc(-c2cc(-c3ccccc3)cc(-c3ccccc3)[n+]2-c2ccccc2)cc1 | -2%
C[C@]12CCC3C(C[C@@H](O)[C@H]4C[C@@H](O)CC[C@]34C)C1CC[C@@H]2O (some centres undefined) | -1%
CCc1nn(CC(=O)N2CCC3(CC2)OCCO3)c(=O)c2cc3ccccc3n12 | -4%
O=C1OCCC1NC1=NCCC1 (centres undefined) | 11%
CCOP(=O)(OCC)C(NC(=O)C(Cl)Cl)C(Cl)(Cl)Cl (centres undefined) | -6%
CCCOC(=O)c1ccccc1C(=O)OCCC | -5%
O=[N+]([O-])c1ccc(C2[C@H]3C(c4ccccc4)=NC4(CCCC4)N23)cc1 (some centres undefined) | 3%

More records follow.
Molecule | KAT2A inh
CN1CCN(C(=O)COc2ccc(-c3nc4ccccc4s3)cc2)CC1 | -5%
CN(C)C(=O)Oc1c(Cl)cc(Cl)c2ccccc12 | -7%
Brc1ccc(-c2ccccc2)cc1 | ?
CCCN1CC[C@@H]2c3cc(O)ccc3CC[C@@H]21 | -5%&-10%&0%
CC[C@H](C)[C@@H](C(=O)N1CCCC1c1nccs1)N(C)C(=O)[C@H](CC(C)C)N(C)C(=O)[C@H](Cc1ccc(OC)cc1)N(C)C(=O)/C=C(\C)OC (some centres undefined) | -2%
COC(=O)C1=C(c2cccc(C#N)c2)C[C@@H]2CC[C@H]1N2C(=O)N1CCCCC1 | 1%
C1CC2OC2CC1C1CO1 (centres undefined) | -16%
Clc1ccc(C(c2ccc(Cl)cc2)C(Cl)(Cl)Cl)cc1 | -8%&8%

Next part
Molecule | KAT2A inh
CCCCCCCCCC(CC)c1ccc(S(=O)(=O)O)cc1 (centres undefined) | ?
CN(C)P(=O)(C(Cl)=C(N1CCCCC1)N1CCCCC1)N(C)C | 2%
NC(N)=NOCC[C@H](N)C(=O)O | -6%
CC12CC[C@H]3[C@@H](CCC4(O)C[C@H](O)CCC34/C=N/NC(=O)c3ccccc3O)C1(O)CCC2C1=CC(=O)OC1 (some centres undefined) | 1%
C/C=C1\NC(=O)[C@@H](NC(=O)[C@H](CCc2ccc(O)cc2)NC(=O)[C@H](C)NC(=O)[C@H](O)CO)[C@@H](C)OC(=O)[C@H](C(C)C)NC(=O)[C@H](Cc2ccc(O)cc2)N(C)C(=O)[C@H](Cc2ccccc2)N2C(=O)C(CC[C@H]2O)NC1=O (some centres undefined) | 3%
CN1CCN(c2c(N)c(=O)oc3ccccc23)CC1 | -3%
N#Cc1cc2c(nc1SCC(=O)Nc1cc(Cl)cc(Cl)c1)C1CCN2CC1 | -1%
C=Cc1ccc(Cn2c(C(=O)O)c(C=O)c3ccccc32)cc1 | -5%

Following part
Molecule | KAT2A inh
Cn1cc(C(=O)OCC(=O)Nc2ccccc2Cl)c2ccccc21 | -1%
Cc1cccc(-n2c(-c3ccco3)nc3ccccc3c2=O)n1 | -9%
C[C@]12CC[C@H](O)C[C@H]1CC[C@@H]1[C@@H]2CC[C@]2(C)C(=O)CC[C@@H]12 | -4%
CC(=O)OC1N=C(c2ccccc2)c2cc(Br)ccc2N(C)C1=O (centres undefined) | -11%
Cc1ccc(C(c2nnnn2Cc2ccccc2)N2CC=C(c3ccc(F)cc3)CC2)cc1 (centres undefined) | -9%
C[C@@H]1C[C@@H]([C@H](O)CC2CC(=O)NC(=O)C2)C(=O)[C@@H](C)C1 | -7%
COc1cccc(-n2nc(C(=O)N3CCC4(CC3)OCCO4)c3ccccc3c2=O)c1 | 2%
CNCC[C@@H](Oc1ccc(C(F)(F)F)cc1)c1ccccc1 | -11%

Later entries.
Molecule | KAT2A inh
Cc1cc(C)n(CCOC(=O)C2C(C=C(Cl)Cl)C2(C)C)n1 (centres undefined) | -1%
CC(N)Cc1c[nH]c2ccc(OCc3cccs3)cc12 (centres undefined) | 2%
C[C@H]1CC[C@H]2NCCN[C@H]2C1 | 1%
O=C(O)c1ccccc1Nc1cccc(C(F)(F)F)c1 | -8%
CC(=O)Nc1cc(C(=O)N2CCC3(CC2)OCCO3)ccc1Sc1ccc(F)cc1 | -17%
C[C@]12CCC(=O)C=C1CC[C@@H]1[C@@H]2CC[C@]2(C)C(=O)CC[C@@H]12 | 2%&1%&-12%
CC1CC2(O)c3no[n+]([O-])c3CCC2N1O (centres undefined) | 2%
O=C(Cc1ccccc1)N1CCN(C2CCCCCC2)CC1 | -6%

Following part
Molecule | KAT2A inh
CCOC(=O)N(C)c1ccc(C(O)(C(=O)OCC)C(F)(F)F)cc1 (centres undefined) | -2%
O=c1[nH]c2ccccc2n1CCCN1CCC(n2c(=O)[nH]c3cc(Cl)ccc32)CC1 | 0%
COCCOC(=O)C1=C(N)Oc2c(c(=O)oc3ccccc23)[C@@]12C(=O)Nc1ccccc12 | 1%
O=C(NCC(c1cccnc1)N1CCOCC1)Oc1ccccc1 (centres undefined) | -1%
Cc1nn(-c2ccccc2)c(C)c1NC(=O)COC(=O)Cc1ccccc1 | -1%
CC(=O)OC1N=C(c2ccccc2)c2cc(Br)ccc2NC1=O (centres undefined) | -16%
O=C1C2CCCN2C(c2ccc(Cl)c(Cl)c2)N1c1ccccn1 (centres undefined) | -1%
CCOC(=O)c1cc(C(O)(C(=O)OC)C(F)(F)F)c(/N=C/N(C)C)o1 (centres undefined) | -29%

(next part)
Molecule | KAT2A inh
COc1ccc(-n2c(O)c(C(C)=Nc3ccc4c(c3)CCC4)c(=O)[nH]c2=O)cc1 | -7%
Cc1ccc(-n2c(/C=C\c3ccc(F)c(F)c3)nc3ccccc3c2=O)c(C)c1 | 3%
O=CC(Cl)P(=O)(N1CCCCC1)N1CCCCC1 (centres undefined) | 2%
Cc1ccccc1NC(=O)Cc1nc(COC(=O)Cc2ccccc2)cs1 | 1%
COc1cc2c(cc1OC)C1[C@H]3C(=CC[C@H]1OC2O)CCN3C (some centres undefined) | -4%
CC(C)(C)C(O)C(Oc1ccc(Cl)cc1)n1cncn1 (centres undefined) | -1%
COc1cccc(C2(O)CCN(Cc3ccncc3)CC2)c1 | 4%
O=C(C1CCN(S(=O)(=O)c2ccccc2)CC1)N1CCC2(CC1)OCCO2 | 0%

(continued)
Molecule | KAT2A inh
Cc1nn(Cc2ccccc2)c(C)c1C(=O)OCC(=O)Nc1cc(S(C)(=O)=O)ccc1Cl | 1%
COc1ccc(-c2nn(CCC#N)cc2C(=O)O)cc1 | 7%
Cc1ccc(-c2nn(CCC#N)cc2C(=O)O)cc1C | 3%
CCC1CN(C)CCC1(OC(C)=O)c1ccccc1 (centres undefined) | 0%
COC(=O)C1=C(c2ccc(C(C)=O)cc2)C[C@@H]2CC[C@H]1N2C(=O)NC1CC1 | -6%
C[C@]12CCC3C(CC[C@H]4C[C@H](O)CC[C@]34C)C1CC(=O)[C@@H]2O (some centres undefined) | -1%
CCC(=NCCOc1ccc(Cl)cc1)c1c(O)n(C)c(=O)n(C)c1=O | -3%
Cc1nonc1OCCNCCNc1ccc([N+](=O)[O-])c2cccnc12 | -3%

20 compounds out of the list, arranged by molecular weight, falling:
Molecule | KAT2A inh
Cc1nn(Cc2ccccc2)c(C)c1C(=O)OCC(=O)Nc1cc(S(C)(=O)=O)ccc1Cl | 1%
COCCOC(=O)C1=C(N)Oc2c(c(=O)oc3ccccc23)[C@@]12C(=O)Nc1ccccc12 | 1%
O=C(C1CCN(S(=O)(=O)c2ccccc2)CC1)N1CCC2(CC1)OCCO2 | 0%
COc1ccc(-n2c(O)c(C(C)=Nc3ccc4c(c3)CCC4)c(=O)[nH]c2=O)cc1 | -7%
Cc1ccc(-n2c(/C=C\c3ccc(F)c(F)c3)nc3ccccc3c2=O)c(C)c1 | 3%
Cc1ccccc1NC(=O)Cc1nc(COC(=O)Cc2ccccc2)cs1 | 1%
CC(=O)OC1N=C(c2ccccc2)c2cc(Br)ccc2NC1=O (centres undefined) | -16%
COC(=O)C1=C(c2ccc(C(C)=O)cc2)C[C@@H]2CC[C@H]1N2C(=O)NC1CC1 | -6%
CCOC(=O)c1cc(C(O)(C(=O)OC)C(F)(F)F)c(/N=C/N(C)C)o1 (centres undefined) | -29%
Cc1nn(-c2ccccc2)c(C)c1NC(=O)COC(=O)Cc1ccccc1 | -1%
Cc1nonc1OCCNCCNc1ccc([N+](=O)[O-])c2cccnc12 | -3%
O=C1C2CCCN2C(c2ccc(Cl)c(Cl)c2)N1c1ccccn1 (centres undefined) | -1%
O=C(NCC(c1cccnc1)N1CCOCC1)Oc1ccccc1 (centres undefined) | -1%
COc1cc2c(cc1OC)C1[C@H]3C(=CC[C@H]1OC2O)CCN3C (some centres undefined) | -4%
C[C@]12CCC3C(CC[C@H]4C[C@H](O)CC[C@]34C)C1CC(=O)[C@@H]2O (some centres undefined) | -1%
COc1cccc(C2(O)CCN(Cc3ccncc3)CC2)c1 | 4%
CC(C)(C)C(O)C(Oc1ccc(Cl)cc1)n1cncn1 (centres undefined) | -1%
O=CC(Cl)P(=O)(N1CCCCC1)N1CCCCC1 (centres undefined) | 2%
Cc1ccc(-c2nn(CCC#N)cc2C(=O)O)cc1C | 3%
CCC1CN(C)CCC1(OC(C)=O)c1ccccc1 (centres undefined) | 0%

Additional structures.
Molecule | KAT2A inh
C[C@@H]1O[C@@H](O[C@H]2C[C@@H](O)[C@@]3(CO)[C@H]4[C@H](O)C[C@]5(C)[C@@H](C6=CC(=O)OC6)CC[C@]5(O)[C@H]4CC[C@@]3(O)C2)[C@@H](O)[C@H](O)[C@H]1O | ?
C[C@]12CC[C@H](O)CC1=CCC1C2CC[C@@]2(C)C1C[C@@H]1CC(=O)O[C@@H]12 (some centres undefined) | -10%
CC(=O)c1c(C)n(C2CCCCC2)c2ccc(O)cc12 | 0%
O=C(C(=O)N1CCOCC1)c1cn(Cc2c(F)cccc2Cl)c2ccccc12 | -7%
CCN1CCC2(CC1)NC(=O)c1ccccc1O2 | -2%
COC1=CCC2([N+](=O)[O-])CN(C)CC1([N+](=O)[O-])C2 (centres undefined) | 2%
NC(=O)CN1CC(c2ccccc2)CC1=O (centres undefined) | -20%
CCN1CCN(Cc2cc(Br)ccc2O)CC1 | 3%

(cont.)
Molecule | KAT2A inh
ClCCOCOCCCl | 0%
Cc1ccc(-c2ccc(=O)n(CCC(=O)N3CCC4(CC3)OCCO4)n2)cc1 | -2%
ClCC(Br)CBr (centres undefined) | -4%
ClC1C(Cl)C(Cl)C(Cl)C(Cl)C1Cl (centres undefined) | ?
CCCC12CN3CC(C)(CN(C1)C3c1ccccn1)C2=O (centres undefined) | 1%
Cc1onc(-c2c(Cl)cccc2Cl)c1/C(N)=N/OC(=O)N(C)C | -1%
CC(=O)c1ccc(NC2=NCCCS2)cc1 | 0%
CCc1ccc(OCC(=O)N2CCN(CC(=O)Nc3ccccc3Cl)CC2)cc1 | -2%

Remaining list, next part.
Molecule | KAT2A inh
NNCc1ccccc1 | -12%
ClC=C(Cl)Cl | -4%
COC(=O)C1=C(c2ccc3ccccc3c2)C[C@@H]2CC[C@H]1N2C(=O)NCc1ccco1 | -14%
Oc1ccc(Cl)cc1Cc1ccccc1 | 6%
COC(=O)C1=C(c2ccc(OC(F)(F)F)cc2)C[C@@H]2CC[C@H]1N2C(=O)N1CCC(O)CC1 | -6%
CCc1ccc(C(=O)C23CN4CN(CN(C4)C2)C3)cc1 | -1%
CCNc1ccc(P(=S)(N(C)C)N(C)C)cc1 | -4%
CCC(=O)OC1CCC2C3CCC4=CC(=O)CC[C@@]4(C)C3CC[C@]12C (some centres undefined) | 1%
Fc1ccc(Cn2nnnc2C(c2ccc(F)cc2)N2CC=C(c3ccc(F)cc3)CC2)cc1 (centres undefined) | -8%
Cc1cccc(NC(=O)N2C[C@H]3C[C@@H](C2)c2cccc(=O)n2C3)c1 | -5%
FC(F)(F)c1ccc2c(c1)NP(=S)(N1CCOCC1)c1nccn1-2 (centres undefined) | 0%

Already shown: entries from further up.
Molecule | KAT2A inh
NNCc1ccccc1 | -12%
ClC=C(Cl)Cl | -4%

Bioassay records as filed in PubChem.

Some of the compounds tested; most or all hits stand in other tables.
